Assay outcomes from PubChem.
Sa helicase inh – inhibitors of S. aureus replicative helicase, primary screen, biochemical, fluorescence unwinding readout. replicative DNA helicase (DnaC/DnaB), Staphylococcus aureus. purified S. aureus helicase, fluorescence unwinding assay; about half of the hits fall short of the stated cut. inhibition, %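 (tested at about 80 µM)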. 120,000 compounds, 0.05% hits;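 active = both duplicates at 50% or more, or one of them with a favoured structure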;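 note: 0% = mean of negative control wells and 100% = mean of positive control wells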
MgrA-DNA mod – S. aureus MgrA activity modulators, primary screen, biochemical, S. aureus Newman, fluorescence polarization. MgrA-DNA binding. inhibition, %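 (about 10 µg/mL by stock and volumes)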. 84,000 compounds, 0.13% hits;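 active = above 50% in either of two replicates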;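 note: 0% = protein plus DNA without compound and 100% = DNA alone without protein; higher means less MgrA bound to DNA so lower polarization; one replicate is shown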
* marks the source's active call; other numbers are inactive results; x = not tested or not shown. Not all compounds are listed. The share of hits here may be higher or lower than overall.

item | mol | Sa helicase inh | MgrA-DNA mod
1 | COc1cc(/C=C(\C#N)C(=O)OC(C)C)ccc1O | -3 | x
2 | Cc1ccc(CN(Cc2ccco2)C(=S)Nc2ccccc2C)cc1 | -37 | x
3 | COc1ccc(NC(=O)CSc2ccc3ccccc3n2)cc1 | 8 | -1.9
4 | CC(=O)N1CCc2cc(S(=O)(=O)C(C)CC(=O)N(C)c3ccc(C)cc3)ccc21 (stereo unspecified) | 26 | x
5 | CNc1sc2c(O)cc(=O)[nH]c2c1C#N | 0 | x
6 | CCSc1ccc2nnc(CCNC(=O)c3ccccc3)n2n1 | -5 | 0.1
7 | COC(=O)c1ccc(-n2cccn2)cc1 | 20 | 0.3
8 | N#C/C(=C\C=C\c1ccccc1)c1cccc(C(F)(F)F)c1 | x | 2.3
9 | O=C(COC(=O)c1ccc2c(c1)OCCO2)Nc1ccc(N2CCOCC2)cc1 | -5 | x
10 | CC(C)C(=O)Nc1c(C(N)=O)oc2ccccc12 | 3 | x
11 | COc1cc(C)ccc1OCC(=O)NC(C)C | 5 | x
12 | O=C(Cc1ccccc1)N1CCN(c2nc3ccccc3o2)CC1 | -2 | 0.8

Exported as labelled records: two of the compounds above
4	CC(=O)N1CCc2cc(S(=O)(=O)C(C)CC(=O)N(C)c3ccc(C)cc3)ccc21 (stereo unspecified)
  Sa helicase inh: 26 | MgrA-DNA mod: x

8	N#C/C(=C\C=C\c1ccccc1)c1cccc(C(F)(F)F)c1
  Sa helicase inh: x | MgrA-DNA mod: 2.3

More records follow.
item | mol | Sa helicase inh | MgrA-DNA mod
13 | O=C(NCCc1ccccc1)NCCN1CCN(c2ccccc2)CC1 | 1 | x
14 | CC(=O)Nc1ccc(Nc2cc(Cl)c(S(=O)(=O)C(F)(F)F)cc2S(=O)(=O)C(F)(F)F)cc1 | -10 | x
15 | CCNc1nc(Oc2ccc(OCC)nn2)nc(N2CCOCC2)n1 | 15 | x
16 | Cc1ccccc1Nc1cc2ccccc2c(=O)[nH]1 | -26 | x
17 | Cc1ccc2nc(Sc3ccccc3)c(/C=C3\SC(=S)N(C)C3=O)c(=O)n2c1 | -102 | 22
18 | Cc1ccc(S(=O)(=O)CCl)cc1 | -8 | -1.1
19 | COc1ccc(N2C(=O)/C(=C/c3ccc(OCc4ccc(C(=O)O)cc4)c(OC)c3)C(=O)NC2=S)cc1 | x | 18
20 | CC(C)(C)c1nocc1C(=O)O/N=C(\N)c1ccccn1 | -27 | x
21 | Cc1nnsc1C(=O)Nc1ccc(-c2cn3c(n2)SCC3)cc1 | x | 0.3
22 | CC(C)NC(=O)c1ccc2c(c1)N(Cc1ccccc1F)C(=O)c1ccccc1S2(=O)=O | 10 | 0.3
23 | CCN=c1scc(-c2ccccc2)n1/N=C/c1ccccc1O | 22 | x
24 | CCCn1c(=O)n(CC#N)c(=O)c2c1nc(C(F)(F)F)n2CCOC | 14 | x
25 | N#CCSc1ncnc2sccc12 | -13 | x
26 | CCOC(=O)c1c(NC(=O)CCC(=O)O)sc(C)c1-c1ccccc1 | x | -1.1
27 | O=c1[nH]nc(SCCS(=O)(=O)c2ccc(F)cc2)n1C1CC1 | x | -1.8
28 | COc1ccc(C2=C/C(=C/c3ccccc3)C(=O)O2)cc1 | -8 | 0.1
29 | Cc1cc(C(=O)O)ccc1-c1ccc(/C=C2\SC(=S)NC2=O)o1 | -91 | x
30 | COc1cc(C(=O)Nc2cccc(-c3nc4cc(Cl)ccc4o3)c2C)cc(OC)c1OC | 4 | -1.2
31 | O=C(Nc1ccc2[nH]ccc2c1)c1ccccc1 | x | 0.0
32 | CCCn1c(=O)c2sccc2n2c(CCCC(=O)N3CCC(C)CC3)nnc12 | -20 | x
33 | CS(=O)(=O)N1CCCN2C(=O)c3ccccc3C21 (stereo unspecified) | x | 0.8
34 | Cc1ccc(CSc2nnc(-c3ccncc3)n2CC(C)C)cc1 | 29 | x
35 | COC(=O)c1cc(-c2ccccc2OC)nc2c1c(C)nn2CCC#N | 5 | x
36 | Cc1c(/C=C/c2ccc(Cl)cc2Cl)c(=O)n(-c2ccccc2)n1C | -5 | 1.9

Entries by screen from above:
Nos. 25 to 34 in Sa helicase inh read -13, x, x, -8, -91, 4, x, -20, x, 29

Next part.
item | mol | Sa helicase inh | MgrA-DNA mod
37 | COc1ccc(-c2csc(N(CC(C)C)C(=O)c3cccs3)n2)cc1 | 9 | -0.8
38 | CCOc1cc(CNc2ccc(N(CC)CC)cc2)ccc1OCC(=O)NC(C)(C)C | -19 | x
39 | O=C(CN1CCCCC1)N1CCc2ccccc21 | 4 | -0.6
40 | O=C(COC(=O)/C=C/c1ccc(I)o1)NC1CC1 | 23 | 3.5
41 | Cc1ccsc1/C=N/NC(=O)CO | 3 | 2.9
42 | O=C(CCC(=O)NC1CC1)NNc1nc2ccccc2c2nc(-c3ccccc3)nn12 | 3 | x
43 | COc1cc(/C=C2\N=C(c3ccc(Cl)c([N+](=O)[O-])c3)OC2=O)ccc1OC(C)=O | x | -1.1
44 | Cc1ccc2cc(CCNC(=O)c3ccc4c(c3)OCO4)c(=O)[nH]c2c1C | 5 | x
45 | O=C(Nc1ccc(NS(=O)(=O)c2ccc(Br)c(C(=O)Nc3ccccc3)c2)cc1)c1ccccc1 | x | -1.3
46 | O=C(NCc1ccc2c(c1)OCO2)c1cc2cc(Cl)ccc2[nH]1 | x | 3.1
47 | N#CC(C(=O)c1cc2ccccc2o1)c1ccc2ccccc2n1 (stereo unspecified) | -12 | 8.7
48 | Cc1ccc(C(=O)N/C(=C\C=C/c2ccccc2)C(=O)NCC2CCCO2)cc1 (stereo unspecified) | 4 | -4.2
49 | Cc1ccc(CNCc2c(C(=O)O)c(C)n(Cc3ccccc3)c2C)cc1 | 2 | -0.3
50 | CCN(C(=O)c1cnc(SC)cc1C(F)(F)F)c1ccc(Cl)cc1 | x | -3.5
51 | COc1ccc(C2C(C(=O)OC(C)C)=C(C)NC3=C2C(=O)CC(c2ccc(Cl)cc2)C3)c(OC)c1 (stereo unspecified) | x | -1.9
52 | COc1ccc(OC)c(C2CC(=O)C3=C(C2)NC(=O)CC3c2cccc(O)c2)c1 (stereo unspecified) | 29 | x
53 | CCOC(=O)c1cnc(Nc2nc3ccccc3o2)nc1CSc1ccc(C)cc1 | 6 | -1.1
54 | O=C(/C=C/c1ccco1)N(c1ccccn1)c1ccccn1 | 22 | 11
55 | CCOC(=O)/C(C)=N/Nc1cc(C(F)(F)F)ccc1N1CCOCC1 | -17 | x
56 | CCC1(C)NC(=O)N(/N=C/C=C2\N(C)c3ccccc3C2(C)C)C1=O (stereo unspecified) | 10 | x
57 | CC(C)c1ccc(N2C(=O)Cc3c2nc(N)c2c(N)nc(N4CCCC4)c(C#N)c32)cc1 | -3 | x
58 | CCC(Sc1nnc2c3ccccc3n(CC)c2n1)C(=O)Nc1ccccc1OC (stereo unspecified) | 32 | x
59 | COC(=O)c1c(C)sc2c(C(F)(F)F)cc(=O)[nH]c12 | x | -1.4
60 | Cc1nnc2sc(-c3ccc(N)cc3)nn12 | 21 | -0.4
61 | O=c1cccc(-c2ccc(Br)cc2)o1 | 12 | x
62 | O=C1/C(=C/c2ccc(-c3cccc(Cl)c3)o2)NC(=S)N1C1CCCCC1 | -41 | x
63 | Cc1cccc(-n2c(O)c(C=Nc3ccccc3)c3ccccc3c2=O)n1 | -17 | 1.9
64 | CS(=O)(=O)c1nc(S(=O)(=O)c2ccc(Cl)cc2)c(N2CCCC2)s1 | 13 | x
65 | O=C(CSC1=NCCN1)NC12CC3CC(CC(C3)C1)C2 | -7 | 0.1
66 | COC(=O)c1ccc(S(=O)(=O)N(Cc2ccccc2)Cc2ccccc2)n1C | x | -1.6
67 | CCN=c1scc(-c2ccccc2)n1/N=C/c1ccc(NC(C)=O)cc1 | -8 | x
68 | CCOC(=O)c1cc2c(C(F)(F)F)nn(C)c2s1 | x | -1.5
69 | Cc1ccc(C(=O)NNc2ncnc3cc(-c4ccc(C(C)(C)C)cc4)sc23)cc1 | x | -2.0
70 | N=c1c2cnn(-c3ccccc3)c2ncn1/N=C/c1ccc(Cl)cc1Cl | -9 | x
71 | CN(CC(=O)Nc1ccccc1SCC#N)Cc1ccc(-c2ccc(Br)cc2)o1 | -90 | x
72 | COc1ccc2nc(Cl)c(CN(Cc3ccc(F)cc3)C(=O)c3ccco3)cc2c1 | 1 | -5.8
73 | CCCCNC(=O)Nc1cccc(-c2nnco2)c1 | 3 | x
74 | CN(C)c1ccc(-n2nnnc2SCc2ccc(Cl)cc2)cc1 | x | -3.0
75 | Cn1c(=O)n(C)c2cc(N3CCCCC3)c(NS(C)(=O)=O)cc21 | -18 | x
76 | O=C1CSC(=O)N1CC(O)COc1cccc2ccccc12 (stereo unspecified) | -8 | x
77 | Cc1nc(-c2cccs2)sc1-c1ccn[nH]1 | x | -2.0
78 | CCOC(=O)c1cc(C(=O)OC)c(C)nc1N1CCC(NC2CCCCC2O)CC1 (stereo unspecified) | x | 1.6
79 | COc1ccc(S(=O)(=O)N2CCC(C)CC2)cc1C(=O)O | -12 | x
80 | O=C1CC(Cc2ccccc2)(c2ccccc2)C(=O)N1 (stereo unspecified) | 6 | x
81 | O=C1NC2=C(C(=O)c3ccccc32)C(c2ccc(Cl)cc2)S1 (stereo unspecified) | -12 | 1.1
82 | CCC(=O)Nc1nnc(SCCOC)s1 | 1 | -1.1
83 | C=CCn1c(/N=C/c2ccc(OCCC(C)C)cc2)nc2ccccc21 | 3 | 2.5
84 | O=C1CC(c2ccccc2)N(c2ccc(Cl)cc2Cl)C(=S)N1 (stereo unspecified) | x | 2.5
85 | O=C(NCCOc1ccc(Cl)cc1)c1ccccc1Cl | 12 | -1.8
86 | CCc1cc(-c2[nH]ncc2-c2ccc3c(c2)OCCO3)c(O)cc1O | 1 | x
87 | Cc1ccc(C(=O)NCc2ccc3c(c2)OCO3)cc1C | 2 | x
88 | CSC1CCCCC1(O)CSc1nc2ccccc2o1 (stereo unspecified) | 5 | 0.9
89 | COC(=O)c1ccc(N=C2SC(C(=O)O)CC(=O)N2C)cc1 (stereo unspecified) | 4 | -2.8
90 | Cc1cccc(Nc2ccccc2C(=O)OC(C)C(=O)N2CCN(C(=O)c3ccco3)CC2)c1C (stereo unspecified) | 12 | x
91 | CCOC(=O)c1sc(-c2ccccc2)cc1NC(=O)COC(=O)COc1cc(C)on1 | -4 | x
92 | O=C1CSCC(=O)N1c1cccnc1 | x | 3.1
93 | CCOC(=O)C(C)Oc1ccc2oc(=O)cc(C)c2c1 (stereo unspecified) | 6 | -2.0
94 | CCN1CCCC1CNCc1cc(=O)n2ccc(C)cc2n1 (stereo unspecified) | -10 | x
95 | Cc1ccc(Cn2c(=S)[nH]c3ccccc32)cc1 | 4 | x
96 | Cc1c(N2C(=O)CSC2c2ccc([N+](=O)[O-])cc2)c(=O)n(-c2ccccc2)n1C (stereo unspecified) | x | 0.6

Following part
item | mol | Sa helicase inh | MgrA-DNA mod
97 | CCOC(=O)C(C)Oc1ccc(C#N)cc1OC (stereo unspecified) | -3 | 1.5
98 | O=C(NC(=S)NC1CC1)c1cccnc1 | 0 | -0.2
99 | CCC/C=C(\CC)C[N+]1(C)CCCCC1 | -15 | -1.5
100 | O=C(NCC(=O)N1CCc2ccccc2C1)c1ccccc1Cl | 18 | x
101 | O=C(O)c1ccc([N+](=O)[O-])c2c1NC(c1ccc([N+](=O)[O-])cc1)C1CC=CC21 (stereo unspecified) | x | 9.1
102 | Cc1ccc(OCc2nnc(SCc3c(F)cccc3Cl)n2-c2ccccc2)c2c1CCC2 | x | 0.7
103 | CCN1C(=O)CSc2ccc(C(=O)OC)cc21 | 4 | x
104 | CNC(=S)N1CCN(S(=O)(=O)c2ccc3ccccc3c2)CC1 | 9 | x
105 | O=C(O)c1ccc(C(F)(F)F)o1 | x | -2.9
106 | O=C(O)C1=NN(c2ccccc2)C(=O)/C1=C/c1cccs1 | 11 | 16
107 | O=C(CS)Nc1nc2c3ccccc3ncn2n1 | -5 | x
108 | CN(C)CCCNCc1ccccn1 | 12 | x
109 | O=C(CCC1(C(=O)O)CCC(=O)NC1)NCc1ccccc1 (stereo unspecified) | 3 | 1.1
110 | N#C/C(=C\c1ccccc1Cl)c1nc2ccccc2[nH]1 | x | 0.6
111 | COCCCn1c(-c2cccc(OC)c2)nc2nc3ccccc3nc21 | -12 | x
112 | O=C(COC(=O)c1ccccc1Cl)Nc1nccs1 | 13 | 2.6
113 | O=C1OC(c2ccccc2)=N/C1=C/c1ccc(Cl)cc1 | x | 0.2
114 | CN(C)S(=O)(=O)c1cccc(C(=O)O)c1 | 1 | -1.2
115 | Cc1ccc(NC(=O)c2cc(-c3ccco3)on2)cc1 | 8 | x
116 | O=C(Nc1ccc(-c2nc3c(ccc4ccccc43)o2)cc1)c1ccco1 | 1 | 1.5
117 | COc1ccc(-n2c(C)cc3cc(OC(C)=O)ccc32)cc1 | 16 | -1.2
118 | CCOC(=O)c1c(C)n(-c2ccc(OC)cc2)c2cc(Br)c(OC)cc12 | x | 1.3
119 | CCOC(=O)C1=C(c2ccccc2)OC(N)=C(C#N)C1c1ccccc1 (stereo unspecified) | 24 | x
120 | CCOC(=O)c1cnc(-c2cccc(OC)c2)[nH]c1=O | 13 | -0.5
121 | CCOC(=O)CCn1nc(-c2ccccc2)cc1N | 8 | -0.6
122 | CCOc1ccc(C(=O)NC(CC)CC)cc1OCC | 17 | -1.0
123 | NS(=O)(=O)c1ccc(N2C(=O)CSC2=S)cc1 | -4 | x
124 | CCCCCCCC(=O)OC[C@H](CO)OC(=O)CCCCCCC | x | 2.8
125 | CC1=C(C(=O)c2ccccc2)CC(C(=O)c2ccccc2)=C(C)N1 | -3 | -0.4

Reformatted: three of the compounds above.
32	CCCn1c(=O)c2sccc2n2c(CCCC(=O)N3CCC(C)CC3)nnc12
  Sa helicase inh = -20
  MgrA-DNA mod = x
33	CS(=O)(=O)N1CCCN2C(=O)c3ccccc3C21 (stereo unspecified)
  Sa helicase inh = x
  MgrA-DNA mod = 0.8
34	Cc1ccc(CSc2nnc(-c3ccncc3)n2CC(C)C)cc1
  Sa helicase inh = 29
  MgrA-DNA mod = x
